# Integrin act MD: qHTS for Activators of Integrin-Mediated Alleviation for Muscular Dystrophy | Potency, µM (doses to about 38.3 µM), for inactives: top-dose activation, most hits filed as activators | 0.064% of 350,000 active | AID 624291, 2012 | alpha7betagal myoblasts, beta-gal FDG fluorescence, 48 h;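 further: potency means the concentration at half of the fitted maximal effect; 100% = response of the positive control SU9516; nearly all actives have a fitted effect of over 60% in size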
#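 Alpha7betagal+/- myoblasts (passage 13) were plated 16-24 hr, then exposed to compounds (1:260 dilution of DMSO stock) for 48 hours at 37C. After MPER lysis, β-galactosidase reporter activity was read as FDG fluorescence (ex 480/em 540) after 30 minutes.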
# TRPV1 ag: HTS Assay for Compounds that Act as Agonists of the Vanilloid Receptor 1; Transient receptor potential cation channel subfamily V member 1 (Homo sapiens), Q8NER1; 0.19% of 320,000 active; activation, % at 8.33 µM; AID 540275, 2011; TRPV1-expressing cells, Fluo-8 calcium influx, agonist mode; in the data active means activation above about 80%; inconclusive means between about 30% and that limit; further: 0% is about no effect
#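 Cells expressing TRPV1 were dye-loaded with Fluo-8 and read kinetically: 10 s baseline, 3 min after compound (agonist portion), then 2 min after EC20 capsaicin (allosteric enhancer portion). Calcium-bound dye fluorescence at 480/520 nm.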
# USP2a inh: qHTS Assay for Inhibitors of Ubiquitin-specific Protease USP2a Using CHOP2 as the Reporter. Ubiquitin carboxyl-terminal hydrolase 2 (Homo sapiens), O75604. USP2 core, Ub-CHOP2 coupled fluorogenic reporter, 485/531. Potency, µM (doses to about 38.3 µM), for the others: top-dose activity change, negative = inhibition, hits mostly inhibitors. 0.01% of 330,000 active. AID 463254, 2010;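 further: potency means the concentration at half of the fitted maximal effect; plate controls were DMSO wells for no effect and full inhibition by NEM control for full effect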
#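 USP2 core (10nM final) preincubated 30min RT with compound in 20mM Tris-HCl pH 8.0, 2mM CaCl2, 2mM beta-mercaptoethanol, 0.05% CHAPS; 25nM Ub-CHOP2 plus 25nM reporter substrate added, fluorescence (Ex485/Em531) read after 60min.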
# PTAP TSG101 blk: qHTS Assay for Iinhibitors of HIV-1 Budding by Blocking the Interaction of PTAP/TSG101. 340,000 tested, under 10 active. Potency, µM (highest dose often 115 µM), for inactives: top-dose activity change, negative = inhibition, actives largely listed as inhibitors. Tumor susceptibility gene 101 protein (Homo sapiens), Q99816. AID 493005, 2010. Fluorescence polarization, FITC-PTAP peptide / Tsg101 binding; active means well fitted inhibition curve with a large enough effect in the main read-out, with a control signal flat, not every such curve was filed as active; inconclusive means small, poorly fitted or top-dose-only effect, or effect the other way, or a change in a side signal; inactive means no such curve, though single readings can be large or run the other way; further: potency means the concentration at half of the fitted maximal effect; % of control where 0% means no effect
# Target sequence (Q99816 whole entry, looked up): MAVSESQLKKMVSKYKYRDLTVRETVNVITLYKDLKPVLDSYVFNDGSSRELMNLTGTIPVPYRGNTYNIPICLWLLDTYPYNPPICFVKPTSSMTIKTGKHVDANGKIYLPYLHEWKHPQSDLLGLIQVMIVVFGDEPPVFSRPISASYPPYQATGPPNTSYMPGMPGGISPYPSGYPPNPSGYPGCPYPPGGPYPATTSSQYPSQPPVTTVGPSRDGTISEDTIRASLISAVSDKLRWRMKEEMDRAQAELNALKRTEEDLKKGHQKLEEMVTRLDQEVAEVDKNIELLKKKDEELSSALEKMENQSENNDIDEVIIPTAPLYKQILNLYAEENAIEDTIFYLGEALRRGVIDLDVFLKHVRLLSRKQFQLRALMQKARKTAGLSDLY
#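 Tsg101 binding domain (10 uM final) was mixed with compound and a FITC-labeled PTAP peptide (50 nM final) in HEPES pH 7.5 buffer with NaCl, Tween 20, EDTA and TCEP; fluorescence polarization was read after 20 min at r.t.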
# ELG1 genotoxic: qHTS screen for small molecules that induce genotoxicity in human embryonic kidney (HEK293T) cells expressing luciferase-tagged ELG1; HEK293T ELG1-luciferase reporter, luminescence, 16 h; Potency, µM (top dose mostly 46 µM), for the others: at the highest dose activity change, positive = activation, actives largely listed as activators; 1.3% of 330,000 active; further: potency means the concentration at half of the fitted maximal effect; % of control where 0% means no effect; nearly all actives have a fitted effect of over 60% in size
#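 Quantitative HTS format in 1536-well plates. HEK293T ELG1-luciferase reporter cells receive test compound and are incubated 16 hr at 37 °C, 5% CO2; ONE-Glo added, 30 min room temperature, then luminescence read.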
# Eya2 phos inh: qHTS Assay for Inhibitors of the Phosphatase Activity of Eya2; 0.006% of 330,000 active; recombinant Eya2, OMFP fluorescence dephosphorylation (OMFP is methylfluorescein phosphate); Protein phosphatase EYA2 (Homo sapiens), O00167; Potency, µM (series often up to 76.9 µM), for inactives: at the top dose activity, negative = inhibition, hits mostly inhibitors; AID 488837, 2010; further: potency means the concentration at half of the fitted maximal effect; on the % scale 0 is the no-effect control and ±100 the full control effect
#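 Eya2 (0.2 uM) preincubated 10 min at ambient with compound, then OMFP substrate added at 50 uM; 10 min reaction in 50 mM HEPES pH 7.5, 50 mM NaCl, 5 uM MgCl2, 0.05% BSA, 1 mM DTT. Fluorescence read at Ex 485/Em 525 nm.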
# ASM inhibitor: Inhibitors of Secretory Acid Sphingomyelinase (S-ASM): qHTS; Sphingomyelin phosphodiesterase (Homo sapiens), P17405; placental ASM, HMU-PC fluorogenic substrate, 60 min; Potency, µM (titrated, usually from 57.5 µM), for inactives: at the highest dose activity change, negative = inhibition, actives largely listed as inhibitors; 0.006% of 340,000 active; AID 504937, 2011; further: potency means the concentration at half of the fitted maximal effect
#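 qHTS format. ASM enzyme prepared from human placenta hydrolyses the fluorogenic substrate HMU-PC0 (9 uM final) over 60 min at 37 °C after a 10 min compound preincubation.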
# Starred values were filed as active, the others as inactive; ? = inconclusive; / = no result given; & = joins results of further samples; [ ] = dose if it differs, or a comment. Unless noted, the call rests on the fitted dose curve; in most records, active means well fitted curve in the direction sought with a large enough effect; inconclusive means small, poorly fitted or top-dose-only effect, or another doubt; inactive means no such curve, though single readings can be large; an effect the other way counts as inactive or inconclusive. This is a subset. The share of hits here may be higher or lower than overall.
# Abbreviations: A = Integrin act MD; B = TRPV1 ag; C = USP2a inh; D = PTAP TSG101 blk; E = ELG1 genotoxic; F = Eya2 phos inh; G = ASM inhibitor
> Cc1cc(C(=O)CS(=O)(=O)c2ccc(F)cc2)cc(C)c1OC(=O)N(C)C
  A: 4%	B: -5	C: 5%	D: -6%	E: ?	F: 4%	G: -5%

> CC(C)C1(C)N=C(c2nc3ccccc3cc2C(=O)O)NC1=O (centres undefined)
  A: -1%	B: 0	C: 0%	D: -1%	E: 1%	F: -16%	G: -3%

> CN1[C@@H]2CC[C@H]1CC(OC1c3ccccc3CCc3ccccc31)C2 (some centres undefined)
  A: /	B: ?	C: 0%	D: 0%	E: -32%[inhibitor]	F: -4%	G: -1%

> O=[N+]([O-])NC1=NCCN1Cc1ccc(Cl)nc1
  A: /	B: -1	C: -7%	D: -6%	E: 0%	F: 5%	G: 7%

> S=C1NCCN1
  A: /	B: 1	C: 4%	D: -2%	E: 6%	F: 1%	G: 3%

> c1ccc(Nc2ccc(Nc3ccccc3)cc2)cc1
  A: /	B: 12	C: -1%	D: 0%	E: 6%	F: 3%	G: -20%

> CNC(=O)Oc1cccc2ccccc12
  A: -20%	B: 0	C: 0%	D: -1%	E: -3%	F: 2%	G: 6%

> Nc1ncnc2c1ncn2[C@@H]1O[C@H](COP(=O)(O)OP(=O)(O)OP(=O)(O)O)[C@@H](O)[C@H]1O
  A: /	B: -4	C: 0%	D: 0%	E: ?	F: 2%	G: ?

> NCC(O)c1ccc(O)c(O)c1 (centres undefined)
  A: /	B: /	C: /	D: -2%	E: /	F: 0%	G: 0%

> CC1OC(OC2CC(O)C3(CO)C4C(O)CC5(C)C(C6=CC(=O)OC6)CCC5(O)C4CCC3(O)C2)C(O)C(O)C1O (centres undefined)
  A: 14%	B: /	C: /	D: 0%	E: /	F: /	G: 3%

# Quoted from the listing.
# PTAP TSG101 blk, CC1OC(OC2CC(O)C3(CO)C4C(O)CC5(C)C(C6=CC(=O)OC6)CCC5(O)C4CCC3(O)C2)C(O)C(O)C1O (centres undefined) : 0%
# ASM inhibitor, NCC(O)c1ccc(O)c(O)c1 (centres undefined) : 0%

# A draw from above in order of length of the SMILES, descending.
# Abbreviations: A = Integrin act MD; B = TRPV1 ag; C = USP2a inh; D = PTAP TSG101 blk; E = ELG1 genotoxic; F = Eya2 phos inh; G = ASM inhibitor
> Cc1cc(C(=O)CS(=O)(=O)c2ccc(F)cc2)cc(C)c1OC(=O)N(C)C
  A: 4%	B: -5	C: 5%	D: -6%	E: ?	F: 4%	G: -5%

> NCC(O)c1ccc(O)c(O)c1 (centres undefined)
  A: /	B: /	C: /	D: -2%	E: /	F: 0%	G: 0%

> S=C1NCCN1
  A: /	B: 1	C: 4%	D: -2%	E: 6%	F: 1%	G: 3%

# Remaining list, next part
# Abbreviations: A = Integrin act MD; B = TRPV1 ag; C = USP2a inh; D = PTAP TSG101 blk; E = ELG1 genotoxic; F = Eya2 phos inh; G = ASM inhibitor
> CCC(COC(=O)c1cc(OC)c(OC)c(OC)c1)(c1ccccc1)N(C)C (centres undefined)
  A: /	B: 19&16	C: -14%&1%	D: 1%&-4%&-2%	E: ?	F: -2%&-11%	G: -4%&-1%&2%

> C[C@]12CCC(=O)C=C1C=C[C@@H]1[C@@H]2CC[C@@]2(C)[C@H]1CC[C@@]2(O)CCC(=O)O
  A: /	B: 2	C: 1%	D: -3%	E: 11%	F: 19%	G: 4%

> COC(=O)C1=C(C)NC(C)=C(C(=O)OC)C1c1ccccc1[N+](=O)[O-]
  A: /	B: 8	C: 0%	D: 0%	E: -6%	F: 13%&2%	G: 1%

> NC12CN3CN(CN(C3)C1)C2 (tested in a mixture with another compound)
  A: 9%	B: 0	C: -6%	D: -2%	E: 1%	F: 22%	G: 1%

> CC(=O)c1c(O)c(C)c(O)c(Cc2c(O)c3c(c(C(=O)/C=C/c4ccccc4)c2O)OC(C)(C)C=C3)c1O
  A: /	B: /	C: /	D: /	E: /	F: -12%	G: /

> CCC1(c2ccccc2)C(=O)N(COC)C(=O)N(COC)C1=O
  A: /	B: 1	C: -2%	D: -1%	E: -1%	F: 20%	G: -6%

> C[C@]12CCC3[C@@H](CC[C@@H]4C[C@H](O)CC[C@]34C)[C@@H]1CCC2=O (some centres undefined)
  A: /	B: 21	C: 0%	D: 1%	E: 6%	F: -3%	G: 0%

> COC1=CC(=O)CC(C)C12Oc1c(Cl)c(OC)cc(OC)c1C2=O (centres undefined)
  A: /	B: 2	C: 6%	D: -3%	E: ?	F: 1%	G: -1%

> CN1CC[C@]23c4c5ccc(O)c4OC2[C@H](O)C=CC3[C@H]1C5 (some centres undefined)
  A: /	B: /	C: -1%	D: -1%	E: -2%	F: 11%	G: -5%

> C[C@]12CC[C@H](O)C[C@@H]1CC[C@H]1[C@H]3CCC(=O)[C@@]3(C)CC[C@@H]12
  A: 0%	B: /	C: /	D: /	E: /	F: /	G: /

# Abbreviations: A = Integrin act MD; B = TRPV1 ag; C = USP2a inh; D = PTAP TSG101 blk; E = ELG1 genotoxic; F = Eya2 phos inh; G = ASM inhibitor
> C[C@]12CCC3C(CC[C@@H]4C[C@H](O)CC[C@]34C)C1CCC2=O (some centres undefined)
  A: 17%	B: /	C: 0%	D: 0%	E: 1%	F: -26%	G: 4%

> c1ccc(-c2nc(N3CCOCC3)s[n+]2-c2ccccc2)cc1
  A: -8%	B: 2	C: -1%	D: 0%	E: 13%	F: -3%	G: -2%

> CN1CCN(Cc2nnc3n2-c2ccc(Cl)cc2C(c2ccccc2)=NC3)CC1
  A: -16%	B: 0	C: 2%	D: -3%	E: 2%	F: -5%	G: 4%

> c1ccc(CN2CCc3nc4ccccc4cc3C2)cc1
  A: 20%	B: 13	C: -2%	D: -7%	E: ?	F: 12%	G: 8%

> CC[C@H]1C2C[C@H]3[C@@H]4N(C)c5ccccc5C45C[C@H](C2[C@H]5O)N3[C@@H]1O (some centres undefined)
  A: /	B: 2	C: 2%	D: -6%	E: 0%	F: 5%	G: 5%

> C[N+](C)(C)Cc1ccccc1
  A: /	B: -2	C: -1%	D: 2%	E: 0%	F: 1%	G: -8%

> C[C@]12CCC3C(CC[C@@H]4CC(=O)CC[C@]34C)C1CC[C@@H]2O (some centres undefined)
  A: -11%	B: /	C: -1%	D: -5%	E: -1%	F: -1%	G: 2%

> CCOC(=O)c1c(-c2ccccc2)oc2ccc(OC(=O)N(C)C)cc12
  A: 8%	B: 6	C: 3%	D: -2%	E: -11%	F: -3%	G: 16%

# Whole records as entered above. Order of values: Integrin act MD	TRPV1 ag	USP2a inh	PTAP TSG101 blk	ELG1 genotoxic	Eya2 phos inh	ASM inhibitor
# Record of `C[C@]12CCC3C(CC[C@@H]4CC(=O)CC[C@]34C)C1CC[C@@H]2O` (some centres undefined) = -11%	/	-1%	-5%	-1%	-1%	2%
# Record of `CC1OC(OC2CC(O)C3(CO)C4C(O)CC5(C)C(C6=CC(=O)OC6)CCC5(O)C4CCC3(O)C2)C(O)C(O)C1O` (centres undefined) = 14%	/	/	0%	/	/	3%

# Screening results deposited in PubChem by National Center for Advancing Translational Sciences (NCATS).
